EPAC1 agonist – validation of human EPAC1 agonists; O95398; EPAC1 Rap1b BODIPY-GDP exchange, fluorescence; Potency, µM, for inactives: max response, positive = active, hits mostly activators; 16,000 compounds, 1% hits; active = well fitted activation curve with a large enough effect; inconclusive = small, poorly fitted or top-dose-only effect; inactive = no such curve, though single readings can be large or run the other way;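 also: nearly all actives have a fitted effect of over 70% in size; series mostly up to about 76 or 150 µM; scaled to a cAMP control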
An asterisk follows results filed as active; ? = inconclusive; & = joins results of further samples; [ ] = another dose, or the depositor's remark. % is scaled to controls: 0 for no effect and ±100 for the full control effect; potency is read from the fitted curve at half-maximal effect. A portion of the library; the hit share may differ from the screen's.

SMILES	EPAC1 agonist
CN(Cc1ccco1)c1nc(-c2ccccc2Cl)nc2ccccc12	100µM*
COC(=O)C1NC(=O)N2C(C(=O)OC)C(C)(C)S[C@H]12 (stereo not given in full)	-28%
N#Cc1cccc(NC(=O)N2CC[C@@]3(CCCN(C(=O)c4cc(C(F)(F)F)cc(C(F)(F)F)c4)C3)C2)c1	-107%[inhibitor]
Nc1nc(O)c2ncn([C@H]3CC[C@@H](CO)O3)c2n1	23%
CCN(CCO)C(=O)c1cnn(-c2ncc3c(n2)-c2ccccc2CCC3)c1C1CC1	?
O=C(N[C@@H]1CCC(=O)N(CC[C@H](Sc2ccccc2)c2ccccc2)CC1)OCc1ccccc1	2%
COc1cccc(Cn2c(=O)c(-c3cccs3)nc3cnc(OCc4ccccc4)nc32)c1	?
CCCN=C(N)NCCC[C@H](N)C(=O)O	-2%
O=c1[nH]c2cc(Cl)ccc2c(O)c1-c1cccc(Oc2ccccc2)c1	-5%
COc1ccc(-c2cccc3c2OC(CNC(=O)c2ccccc2-n2cccn2)C3)nn1 (stereo not given)	-2%
COc1ccccc1C1CN(CC(=O)N2CCC(C(O)c3ccccn3)CC2)Cc2ccccc2O1 (stereo not given)	-14%
Cc1nc(NCc2c(F)cccc2F)sc1-c1ccn(CCN2CCOCC2)n1	-4%
C[C@]12CC[C@@H]3c4ccc(O)cc4CC[C@H]3[C@@H]1C[C@@H](O)[C@@H]2O	14%
Cc1noc(C)c1-c1cc(NCCN2CCOCC2)ncn1	23%
COC(=O)N1CCC2(CCCN(c3ccc(-c4ccccc4)cc3)C2)CC1	-26%
Cc1cc(C(=O)Nc2cccc(-c3nc(CNC(=O)c4sc(C)nc4C)c(C)o3)c2)c(C)o1	22%
COc1cc(C)c(CN2C[C@H](Sc3ccccn3)C[C@H]2C(=O)N(C)C)cc1C	3%
C#C[C@]1(OC(C)=O)CC[C@H]2[C@@H]3CCC4=CC(=O)CC[C@@H]4[C@H]3CC[C@@]21C	12%
CCCCc1nc(Cl)c(CO)n1Cc1ccc(-c2ccccc2-c2nn[nH]n2)cc1	?
CCCCN1CC[C@H]2C=CC[C@@H](C(=O)Nc3ccc(OC)cc3)[C@H]2C1=O	-9%
Cc1cnc(C(=O)O)c[n+]1[O-]	-41%&5%&3%[inhibitor]
COc1ccc(NS(=O)(=O)c2ccc(I)cc2)cc1N1CCN(C)CC1	-6%
Cc1ccc(CN2CCc3nnc(C(NC(=O)c4ccoc4)C(C)C)n3CC2)cc1C (stereo not given)	20%
O=C(c1csnn1)N1CCC2(CCCN(Cc3ccccc3)C2)CC1	5%
COC(=O)[C@@H](N)Cc1ccc(O)c(O)c1	-14%&17%
Cc1cnc(-n2ncc(C(=O)NCCN3CCOCC3)c2C2CC2)nc1-c1cccs1	3%
Clc1ccc2c(c1)C(N1CCNCC1)=Nc1ccccc1O2	0%&-12%&-28%
NC1(C(=O)O)CCc2cc(C(=O)O)ccc21 (stereo not given)	4%&-5%
COc1ccccc1CNc1ccnc(-c2ccccc2OC)n1	-28%
Cc1nc2cnc(N(C)C)nc2n(CCc2ccccc2)c1=O	-6%
Cc1cnc(CNc2cc(-c3ccc4c(c3)OCO4)ncn2)cn1	15%
CC1CN(Cc2cccn2-c2ncccn2)Cc2cc(Cl)ccc2O1 (stereo not given)	5%
CCN(CC)c1ccc(/C=C/c2ccccn2)cc1	-29%
COC(=O)C1CCN(Cc2ccc3c(c2)CN(C(=O)c2ccc(-n4cnnn4)cc2)CCO3)CC1	13%
COC(=O)[C@@H]1C[C@@H](NC(=O)c2cccc3c(C)c(C)[nH]c23)CN1Cc1cccc2ccccc12	-7%
CC(C(=O)O)c1ccc(CC2CCCC2=O)cc1 (stereo not given)	-4%&-12%
CS(=O)(=O)Nc1cccc(-c2nccc(Nc3ccc(F)cc3)n2)c1	-48%
Cc1nc2ccc(C(=O)NCC3CCC4(CCN(Cc5cccnc5)CC4)O3)cc2nc1C (stereo not given)	0%
CCNc1ncc2nc(-c3ccc(Cl)cc3)c(=O)n(-c3ccc(OC)cc3)c2n1	-98%[inhibitor]
CCCCNC(=O)NS(=O)(=O)c1ccc(N)cc1	12%
O=C(NCCc1ccncc1)c1cnn(-c2ncc3c(n2)-c2ccccc2CCC3)c1C1CC1	-4%
CO/N=C(\C(=O)N[C@@H]1C(=O)N2C(C(=O)O)=C(COC(C)=O)CS[C@H]12)c1csc(N)n1 (stereo in doubt)	7%
COc1ccc(Oc2ncc3nc(-c4ccc(OC)cc4)c(=O)n(C4CC4)c3n2)cc1	7%
O=c1cnc2cnc(N3CCNCC3)nc2n1C1CC1	-34%[inhibitor]
NCCNC(=O)Cc1ccc(NC(=O)Cc2ccc(Nc3ncnc4c3ncn4[C@@H]3O[C@H](CO)[C@@H](O)[C@H]3O)cc2)cc1	-9%
C[N+]1(CC(=O)c2ccccc2)CCc2ccccc2C1 (stereo not given)	6%
COc1cc(=O)n2c(c1C(=O)N(C)Cc1nccs1)CCN(Cc1cc(C)cc(C)c1)CC2	-13%
COc1c(-c2coc3cc4c(cc3c2=O)CC(OC(C)=O)C(C)(C)O4)ccc2c1C=CC(C)(C)O2 (stereo not given)	-33%[inhibitor]
CC(C)c1c(C(=O)N2CCN(CCO)CC2)cnn1-c1nccc(-c2cccs2)n1	6%
COc1ccc(CN2CCC(=O)N([C@H](CO)Cc3ccccc3)CC2)cc1OC	?
COc1ccc(CCNCC(O)COc2cccc(C)c2)cc1OC (stereo not given)	-29%
CC(=O)OC1CC(O)C(C)(C)C2CC(OC(C)=O)[C@]3(C)C(CC[C@@]4(C)C(c5ccoc5)OC(=O)C5OC534)[C@]12C (stereo not given in full)	-9%
CC(C)(C)[C@]1(O)CCN2C[C@H]3c4ccccc4CCc4cccc(c43)[C@@H]2C1	9%&-7%&-2%
CC[N+]1(C)C2CCC1CC(OC(=O)[C@H]1CCC(C(=O)OC3CC4CCC(C3)[N+]4(C)CC)(c3ccccc3)c3ccccc31)C2 (stereo not given in full)	-8%
N#Cc1ccc(CN2CCC3(CC2)CCN(C(=O)c2ccco2)CC3)cc1	-70%[inhibitor]
O=c1cc(N2CCOCC2)oc2c(-c3ccccc3)cccc12	-9%&-10%&-18%&-9%
Cc1ccnc2c1NC(=O)c1cccnc1N2C1CC1	8%
CSc1ccc2c(c1)C(N1CCN(C)CC1)Cc1ccccc1S2 (stereo not given)	5%&26%&-15%
COc1ccccc1-n1cc(C(=O)NCCN2Cc3ccccc3OC(c3ccsc3)C2)cn1 (stereo not given)	9%
COc1cccc(-c2cncnc2NCc2cccc(C)c2)c1	6%

Next part:
SMILES	EPAC1 agonist
COc1ccc(-c2nc3cnc(N4CCNCC4)nc3n(CCc3ccccc3)c2=O)cc1	?
CCC1C(=O)NCCN1Cc1ccc2c(c1)CN(Cc1cccc(OC)c1)CCO2 (stereo not given)	-5%
CSc1ccc2cc(CNCc3ccccc3F)c(N3CCCC(CO)C3)nc2c1 (stereo not given)	-4%
COc1cccc(N(C)C(=S)Oc2ccc3c(c2)CCCC3)n1	?
O=C(NCCN1CCOCC1)c1cnn(-c2nccc(-c3cc4ccccc4o3)n2)c1C1CC1	10%
Clc1ccccc1-c1nc(NCc2cccs2)c2ccccc2n1	?
C=CCn1c(=O)c2c(nc(-c3ccc(S(=O)(=O)O)cc3)n2C)n(C)c1=O	-1%&-12%
N[C@H]1CCN(O)C1=O	1%
CC(C)c1ccc2c(c1)CCC1C(C)(C(N)=O)CCCC21C (stereo not given)	-74%[inhibitor]
CCCCC/C=C\C/C=C\CCCCCCCC(=O)NCC(=O)O	-16%
Cc1noc(C)c1C(=O)N1CCC2(CC1)CN(c1ccccn1)C2	?
COc1ccc(CN2CCOc3ccc(C(O)c4cccnc4)cc3C2)cc1 (stereo not given)	-28%
CC(=O)O[C@H]1CC2(C)[C@@H](C[C@@H](O)[C@H]3[C@@]4(C)CC[C@@H](O)[C@@H](C)[C@@H]4CC[C@@]32C)C1=C(CCC=C(C)C)C(=O)O (stereo not given in full)	-7%
COc1cccc(-c2ccc3ncnc(NCc4ccc(OC)cc4OC)c3c2)c1	?
O=C(/C=C/c1ccc(O)c(O)c1)O[C@@H]1C[C@@](OC(=O)/C=C/c2ccc(O)c(O)c2)(C(=O)O)C[C@@H](O)[C@@H]1O	-3%
CCN(CC)C(=O)c1cccc(C)c1	-7%
CCCCCCCCCCC[C@@H](C[C@@H]1OC(=O)[C@H]1CCCCCC)OC(=O)[C@H](CC(C)C)NC=O	-94%[inhibitor]
O=c1c(-c2ccc(Cl)cc2)nc2cnc(N3CCOCC3)nc2n1C[C@H]1CCCO1	-34%[inhibitor]
Cc1cc[n+](C2CCCCC2)cc1	-17%
C=CC(C1=CC(=O)C(OC)=CC1=O)c1ccc(OC)cc1 (stereo not given)	-18%
COCc1ccc(CN2Cc3ccccc3OC(c3ccccc3F)C2)o1 (stereo not given)	6%
COCCn1c(=O)c(-c2cc(F)cc(F)c2)nc2cnc(N3CCN(C)CC3)nc21	-18%
CCN1CCCC1CNC(=O)c1cnn(-c2ncc(C)c(-c3ccc(F)cc3)n2)c1C(C)C (stereo not given)	-6%
CCC(C)N(C)C(=O)c1cc2ccccc2c(-c2ccccc2Cl)n1 (stereo not given)	-4%&-12%
COCCc1ccc(OCC(O)CNC(C)C)cc1 (stereo not given)	11%&-20%&10%&-17%&7%
Cc1cnc(C)c(-c2ccc(O)c(CN3CCN(C=O)CC3)c2)n1	-16%
CCNc1ncc2nc(CCc3ccccc3)c(=O)n(-c3ccccc3)c2n1	-109%[inhibitor]
CCC12C(=Nc3c(Cl)cccc31)C[C@@H]1CCN3C(=O)CCC[C@H]2[C@H]13 (stereo not given in full)	-5%
O=C(C[N+]12CN3CN(CN(C3)C1)C2)c1ccc(Br)cc1	-53%[inhibitor]
COc1ccc(-c2nc3cnc(N4CCN(C)CC4)nc3n(CCc3ccccc3)c2=O)cc1	-41%[inhibitor]
COc1cc(=O)n2c(c1C(=O)N(C)Cc1nonc1C)CCN(Cc1cc(C)ccc1C)CC2	-1%
c1ccc2ccccc2c1	9%
COc1ncc2nc(C)c(=O)n(CCc3ccccc3)c2n1	?
Cc1cc(C)cc(C(=O)C[n+]2cccc(Br)c2)c1	-1%
CC(=O)N1CCC[C@H]1C(=O)NCC1Cc2cc(C)cc(-c3ccc(Cl)cc3)c2O1 (stereo not given in full)	5%
